Assay outcomes: PubChem, National Center for Advancing Translational Sciences (NCATS)
VDR inh – vitamin D3 receptor (human) inhibition; AID 504847; VDR-SRC2-3 peptide fluorescence polarization, 2 h; Potency, µM, for inactives: max response, negative = inhibition, hits mostly inhibitors; P11473; 400,000 compounds, 0.93% hits; active = well fitted inhibition curve with a large enough effect; inconclusive = small, poorly fitted or top-dose-only effect, or another doubt; inactive = no such curve, though single readings can be large or run the other way; also: series mostly up to about 120 µM
Target sequence (P11473 whole entry, looked up): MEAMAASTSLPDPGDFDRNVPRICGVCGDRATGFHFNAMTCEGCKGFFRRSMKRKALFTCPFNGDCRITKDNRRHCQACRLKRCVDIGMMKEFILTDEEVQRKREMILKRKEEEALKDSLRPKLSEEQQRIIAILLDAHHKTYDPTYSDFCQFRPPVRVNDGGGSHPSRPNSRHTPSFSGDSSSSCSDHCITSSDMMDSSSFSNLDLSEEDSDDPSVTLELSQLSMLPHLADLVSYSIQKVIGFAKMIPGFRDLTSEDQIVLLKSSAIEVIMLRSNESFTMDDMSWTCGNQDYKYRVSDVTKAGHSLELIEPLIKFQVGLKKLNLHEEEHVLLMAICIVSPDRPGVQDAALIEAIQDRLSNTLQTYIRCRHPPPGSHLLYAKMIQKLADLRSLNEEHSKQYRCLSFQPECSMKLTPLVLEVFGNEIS
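VDR–SRC2-3 interaction, FP format. Cmpds 23 nl via pintool, brief spin, 2 h ambient incubation.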
The depositor's hits bear a star; & = joins results of further samples. % is scaled to controls: 0 for no effect and ±100 for the full control effect; potency is read from the fitted curve at half-maximal effect. A portion of the library; the hit share may differ from the screen's.

For CCOC(=O)c1ccc(NS(=O)(=O)c2ccc3oc(=O)[nH]c3c2)cc1 the results were VDR inh inconclusive.
C=CCOc1ccc(Br)cc1CNCCO was read as VDR inh inconclusive.
CCOc1ccc(CCNC(=O)CSc2cc(=O)n(C)c3ccc(Cl)cc23)cc1OCC was read as VDR inh -13%&-14%.
Screening COCCNC(=O)/C(C#N)=C/c1ccc(OCc2ccccc2)cc1 returned VDR inh -5%.
Screening CCNc1ccc(Br)cc(C(=O)/C=C/c2ccc(Cl)cc2Cl)c1=O returned VDR inh 79µM*.
O=C(CC(c1cccs1)N1Cc2ccccc2C1=O)Nc1ccc(Cl)cc1 (stereo unspecified) was read as VDR inh 16%.
Screening Cc1ccc(OCC(=O)Nc2ccccc2F)cc1C returned VDR inh 1%.
Screening CN(c1ccccc1)S(=O)(=O)c1ccc(NC(=S)Nc2ccccc2)cc1 returned VDR inh -9%.
`CC(=O)Nc1ccc(CN2CCc3c([nH]c4ccccc34)C2C(C)(C)C)cc1` (stereo unspecified) gave VDR inh inconclusive.
`O=C(NCCN1CCOCC1)C1CCN(S(=O)(=O)N2CCCCC2)CC1` gave VDR inh -11%.
Screening O=C1C(Cl)=C(N2CCCC2)C(=O)N1c1ccccc1F returned VDR inh inconclusive.
O=C(Nc1cccc(C(F)(F)F)c1)/C(=C\c1ccco1)NC(=O)c1cccs1 was read as VDR inh 5%.
Screening COc1ccccc1NS(=O)(=O)c1cccc(C(=O)N/N=C/c2cn(-c3ccccc3)nc2-c2ccccc2)c1 returned VDR inh -6%.
For COc1ccc(-c2c(C)c3ccc(O)c(CN4CCOCC4)c3oc2=O)cc1 the results were VDR inh 14%.
Screening CC(C)C[C@@H](CN)NC(=O)c1nc[nH]c1C(=O)N[C@@H](CC(=O)O)C(=O)CNC[C@H](C)NC(=O)c1nc[nH]c1C(=O)N[C@@H](CC(=O)O)C(=O)O returned VDR inh -11%.
`COc1ccc(-n2c(C)c(C(=O)O)c3cc(OC)c4ccccc4c32)cc1` gave VDR inh 4%.
`NC(=O)C1CCN(C(=O)COc2ccc3ccccc3c2)CC1` gave VDR inh -8%.
Screening CCn1c(=O)c2c(nc(SCC(=O)Nc3ccccc3)n2C)n(C)c1=O returned VDR inh -8%.
For O=c1c2ccccc2nc2c3ccccc3ncn12 the results were VDR inh 10%.
O=C(CN1CCN(S(=O)(=O)c2ccccc2C(F)(F)F)CC1)NCc1cccs1 was read as VDR inh 8%.
Screening CCOc1ccc(NS(=O)(=O)c2cccc(C(=O)N(C)Cc3ccco3)c2)cc1 returned VDR inh -12%.
For Cc1nn(C)c(C)c1CNC(=O)Nc1cccc(Cl)c1C the results were VDR inh -18%.
`COc1cc(O)c(/C=N/NC(=O)c2ccncc2)c(OC)c1[N+](=O)[O-]` gave VDR inh -13%.
Screening COc1cc2c(C(=O)OCCN(C)C)c(CSc3ccccc3)n(C)c2cc1Br returned VDR inh -9%.
For CC1CCN(c2cc(=O)n(C3CCCCC3)c(=O)[nH]2)CC1 the results were VDR inh -11%.
Screening CCOC(=O)C1Oc2ccccc2C(c2ccoc2)=C1C(=O)OC (stereo unspecified) returned VDR inh -10%&-28%.
`Cc1cc(C)nc(N2CCN(c3nc(-c4ccccc4)nc4c3oc3ccccc34)CC2)n1` gave VDR inh 11%.
`Nc1ccc2oc(Cc3ccc(Cl)cc3)nc2c1` gave VDR inh 79µM*.
`O=C(NC1CCCCC1)C(c1c(F)cccc1Cl)N(C(=O)c1csnn1)C1CC1` (stereo unspecified) gave VDR inh -4%.
O=C(Nc1ccc(Cc2ccncc2)cc1)c1ccc(Br)o1 was read as VDR inh 2%.
For Cc1cccnc1NC(=O)Nc1ccccc1 the results were VDR inh -21%.
`COc1ccc(OC)c(CCNC(=O)CC2Oc3ccccc3NC2=O)c1` (stereo unspecified) gave VDR inh -12%.
For COc1ccc(OC)c2c(C)cc(C)nc12 the results were VDR inh -3%.
For CCc1[nH]nc2c1C1(C(=O)N(Cc3ccccc3)c3ccccc31)C(C#N)=C(N)O2 (stereo unspecified) the results were VDR inh -14%.
`Cc1cc(C)c(N=Cc2c(O)c3ccccc3oc2=O)c(C)c1` gave VDR inh -3%.
Screening CCOC(=O)CSc1nc(Cc2ccccc2)nc2ccccc12 returned VDR inh 5%.
For COc1ccc(NC(=S)NCCc2ccccc2OC)c(OC)c1 the results were VDR inh 3%.
For N=c1c(C(=O)NCC2CCCO2)cc2c(=O)n3ccccc3nc2n1C1CCCCC1 (stereo unspecified) the results were VDR inh 17%.
O=C1[C@H]2[C@H](C=CC[C@H]2C(=O)N2CCOCC2)CCN1Cc1ccccc1 was read as VDR inh 8%.
NS(=O)(=O)c1ccc(CNC(=O)c2cc(-c3ccccn3)nc3ccc(Cl)cc23)cc1 was read as VDR inh -21%.
Screening O=C(c1cc(COc2ccc(F)c(F)c2)on1)N1CCN(C/C=C/c2ccccc2)CC1 returned VDR inh -4%.
For CC(C)C(NC(=O)c1cccs1)c1nnc(SCC(=O)Nc2nccs2)n1C (stereo unspecified) the results were VDR inh -8%.
`CC(C)(C)C(=O)OCc1nc(-c2ccc(O)c(O)c2)cs1` gave VDR inh 15%.
For CCn1cc(C(=O)NCc2ccccc2OC)c(=O)c2cc(S(=O)(=O)N3CCCCCC3)ccc21 the results were VDR inh -4%.
O=C(c1cnn2c(C(F)(F)F)cc(-c3ccccc3)nc12)N1CCCc2ccccc21 was read as VDR inh -11%.
Screening Cc1nc(NC(=O)CN2CCOCC2)sc1-c1ccccc1 returned VDR inh 3%.
O=C(COC(=O)C(c1ccccc1)c1ccccc1)NCc1ccco1 was read as VDR inh -9%.
For Cc1cccc(CCNC(=O)c2cc(S(=O)(=O)N3CCCCC3)c[nH]2)c1 the results were VDR inh -9%&6%.
Screening CCOc1ccc(C2CC(c3cccc(OC)c3)Nc3nc(N)nn32)cc1 (stereo unspecified) returned VDR inh 2%.
For COCCNc1cc(N2CCN(C3CCCCC3)CC2)c2noc3c2c1C(=O)c1ccccc1-3 the results were VDR inh -29%.
For Cc1ccc(OCCCNCCO)c(Br)c1 the results were VDR inh -1%.
O=c1c(C(c2ccc(Br)cc2)c2c(O)nc3n(c2=O)CCCS3)c(O)nc2n1CCCS2 was read as VDR inh -15%.
`O=C(Nc1c(C(=O)c2ccccc2)oc2ccccc12)c1cc(-c2ccccc2O)n[nH]1` gave VDR inh 1%.
`CC(C)/C=C(/C(=O)c1ccc(Cl)cc1Cl)n1cncn1` gave VDR inh inconclusive.
For Cc1cccc(NC(=O)CSc2nccn2-c2cccc(Cl)c2)c1C the results were VDR inh 5%.
For Cc1ccc(N(C)C(=O)Cn2cc(S(=O)(=O)N3CCCC3)c(S(=O)(=O)N3CCCC3)c2)cc1 the results were VDR inh -2%.
Screening Cc1ccc(C)c(C(=O)N2CCC(c3nc4c(nnn4Cc4ccccc4)c(=O)[nH]3)CC2)c1 returned VDR inh 6%.
Screening COc1cc(NC(=O)CN2C(=O)c3ccccc3S2(=O)=O)cc(OC)c1 returned VDR inh -6%.
`O=C(Cc1ccccc1)N1CCc2ccccc21` gave VDR inh 8%.
`CCn1c(C(=O)Nc2ccc(C)cc2C)cc2sc(Cl)cc21` gave VDR inh 1%.
Oc1c(Br)cc(/C=N/n2c(-c3ccccc3)n[nH]c2=S)c(O)c1Br was read as VDR inh inconclusive.
`COc1ccc(-n2ncc(C(=O)NCc3ccco3)c2C2CCN(C(=O)OC(C)(C)C)CC2)cc1` gave VDR inh 10%.
CC(C)=CC(=O)Nc1nnc(-c2ccccc2)s1 was read as VDR inh -16%.
`O=C(CCSc1ccc(Cl)cc1)NCc1ccccn1` gave VDR inh -3%.
For CCn1ccc2cc(S(=O)(=O)N3CCCN(C(=O)Nc4cc(Cl)ccc4C)CC3)ccc21 the results were VDR inh 5%.
`Cc1cc(NC2CCCC2)n2nc(C)c(-c3ccccc3)c2n1` gave VDR inh 15%.
Cc1ccc([N+](=O)[O-])cc1NC(=O)CN(C)CCOc1ccccc1 was read as VDR inh 12%.
Screening Cc1ccc(C(=O)Nc2ccon2)cc1S(=O)(=O)N1CCOCC1 returned VDR inh 4%.
COc1cc(C2Nc3cc(C)c(C)cc3NC3=C2C(=O)CC(C)(C)C3)ccc1OC(C)=O (stereo unspecified) was read as VDR inh -10%.
For CCN(CC)c1ccc2cc(C#N)c(=O)oc2c1 the results were VDR inh 13%.
For Cc1cccn2c(=O)c(/C=N/O)c(N3CCOCC3)nc12 the results were VDR inh -2%.
`O=C(NCCC1CCCCN1S(=O)(=O)c1ccc(F)cc1)C(=O)NCc1ccncc1` (stereo unspecified) gave VDR inh -11%.
Screening CC1(C)OC(C(N)=O)C(C(N)=O)O1 (stereo unspecified) returned VDR inh 7%.
Screening CCOc1ccc(S(=O)(=O)N(C(=O)c2ccncc2)c2ccc3oc(C)c(C(=O)OC)c3c2)cc1 returned VDR inh -16%.
`C/C(=N\NC(=S)NC(C)C)c1cccc([N+](=O)[O-])c1` gave VDR inh -16%.

No new results follow: two of the compounds above.
Oc1c(Br)cc(/C=N/n2c(-c3ccccc3)n[nH]c2=S)c(O)c1Br was read as VDR inh inconclusive.
`COc1ccc(-n2ncc(C(=O)NCc3ccco3)c2C2CCN(C(=O)OC(C)(C)C)CC2)cc1` gave VDR inh 10%.

Going on with the list:
For COc1ccc(Cl)cc1S(=O)(=O)NC1CC(C)(C)NC(C)(C)C1 the results were VDR inh 19%.
For CCCCOc1ccc(C(=O)N2CCN(c3ccc(N4CCOCC4)nn3)CC2)cc1 the results were VDR inh 4%.
Screening Cc1ccc(C)c(N2C(=O)N(Cc3ccccc3C)c3ccccc3S2(=O)=O)c1 returned VDR inh 1%.
`CCc1nn(CC(=O)N2CCCCC2)c(=O)c2cc3sccc3n12` gave VDR inh 4%.
Screening CCCc1[nH]n(-c2ccc([N+](=O)[O-])cc2)c(=O)c1C(C)=NCc1ccncc1 returned VDR inh 9%.
For FC(F)Oc1ccc(NC(=S)NCCc2ccccn2)cc1 the results were VDR inh 8%.
COC(=O)c1ccccc1NC(=O)Nc1nnc(N2CCCCC2C)s1 (stereo unspecified) was read as VDR inh 2%.
`COc1ccc(-n2c(SCC(=O)Nc3cc(C(=O)O)ccc3C)nc3ccccc3c2=O)cc1Cl` gave VDR inh 6%.
`CC1C(c2ccccc2)=[N+]([O-])C2(CCCC2)N1O` (stereo unspecified) gave VDR inh 2%.
`O=C(Nc1cccnc1)Nc1ccc(Br)cc1Cl` gave VDR inh -12%.
`Cc1ccc(-c2nnc3ccccc3c2C(=O)Nc2cccc(C(F)(F)F)c2)cc1` gave VDR inh 19%.
`CC1CCCCN1Cc1nc2c(c(=O)n(C)c(=O)n2C)n1CCCc1ccccc1` (stereo unspecified) gave VDR inh 2%.
For CCOC(=O)c1cc(-c2ccccc2)n(CC(=O)N2CCCC2)c1C the results were VDR inh 3%.
Cc1ccc(-c2cc3ncc(C(=O)c4cc(Cl)c(C)cc4O)cn3n2)cc1 was read as VDR inh 7%.
`CC(C)(C)N(Cc1ccccc1)C(=O)COC(=O)C1CC1` gave VDR inh 11%.

Seven compounds drawn at random from those above, as already listed:
`O=C(Nc1cccnc1)Nc1ccc(Br)cc1Cl` gave VDR inh -12%.
`COc1ccc(-n2c(SCC(=O)Nc3cc(C(=O)O)ccc3C)nc3ccccc3c2=O)cc1Cl` gave VDR inh 6%.
`CC1CCCCN1Cc1nc2c(c(=O)n(C)c(=O)n2C)n1CCCc1ccccc1` (stereo unspecified) gave VDR inh 2%.
`CC1C(c2ccccc2)=[N+]([O-])C2(CCCC2)N1O` (stereo unspecified) gave VDR inh 2%.
Screening Cc1ccc(C)c(N2C(=O)N(Cc3ccccc3C)c3ccccc3S2(=O)=O)c1 returned VDR inh 1%.
For FC(F)Oc1ccc(NC(=S)NCCc2ccccn2)cc1 the results were VDR inh 8%.
`Cc1ccc(-c2nnc3ccccc3c2C(=O)Nc2cccc(C(F)(F)F)c2)cc1` gave VDR inh 19%.

Later entries:
`COCc1cc(C)nc2sc3c(=O)n(-c4cccc5ccccc45)nnc3c12` gave VDR inh -15%.
For C=C1C(=O)O[C@@H]2[C@H]1CC[C@H](C)[C@]1(O)CCC(=O)[C@@]21C the results were VDR inh 3%.
`CCOCCCNC(=O)C1(O)c2cc(Br)ccc2NC(=O)N1c1ccc(CC)cc1` (stereo unspecified) gave VDR inh -23%.
`CCOC(=O)c1cccc(NC(=O)c2cc(S(=O)(=O)N3CCCCCC3)cn2C)c1` gave VDR inh -1%.
`Cc1ccccc1C(=O)c1c[nH]c(C(=O)N2CCN(c3ccccc3F)CC2)c1` gave VDR inh 13%.
Cc1ccc(-n2cc(CCCCCCCCC(=O)O)nn2)cc1 was read as VDR inh -1%.
Screening NC(=S)N/N=C1\CCSc2ccc(Cl)cc21 returned VDR inh -8%.
Screening CC(C)Cn1nc(NC(=O)C(C)(C)C)c2cc3ccccc3nc21 returned VDR inh 13%.
CCCc1cc(=O)n2[nH]c(-c3cccc(Br)c3)cc2n1 was read as VDR inh inconclusive.
Screening COc1ccc(CN(C(=O)c2snc(C(N)=O)c2N)C(C(=O)NC(C)(C)C)c2ccco2)cc1 (stereo unspecified) returned VDR inh -2%.

Compounds above with a CF3 group:
O=C(Nc1cccc(C(F)(F)F)c1)/C(=C\c1ccco1)NC(=O)c1cccs1 was read as VDR inh 5%.
O=C(CN1CCN(S(=O)(=O)c2ccccc2C(F)(F)F)CC1)NCc1cccs1 was read as VDR inh 8%.
O=C(c1cnn2c(C(F)(F)F)cc(-c3ccccc3)nc12)N1CCCc2ccccc21 was read as VDR inh -11%.
`Cc1ccc(-c2nnc3ccccc3c2C(=O)Nc2cccc(C(F)(F)F)c2)cc1` gave VDR inh 19%.
